# Compound activity (PubChem BioAssay)
# Mtb hypoxia rep: Mtb hypoxia fluorescent reporter inhibition; M. tuberculosis hypoxia-regulated fluorescent reporter, fluorescence; AID 1159583; fluorescence inhibition, % (test concentration not listed); 300,000 tested, 0.1% active;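 active = 35 to 45% if threefold the growth effect, above 45% if 1.5-fold the growth effect; inactive = the rest, general growth blockers included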;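 note: wells of about 50 µL received 100 nL stock; 0% = vehicle wells and 100% = reference inhibitor wells; whole bacteria with a GFP reporter of the hypoxia response; strong numbers were not always called active; many hits fall short of the cut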
# Autofluor counter: flagged as autofluorescent in microsphere protease counterscreen. fluorescence intensity (test concentration not listed). 360,000 tested, 3.1% active. AID 624483. compound autofluorescence counterscreen, microsphere flow cytometry; stronger effect = higher value;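 active = at least 3 SD above the mean of all compounds, about 16000 in these data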;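 note: 100 nL of 1 mM stock went into each well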
# BJeLR lethal: BJeLR cell viability loss | BJeLR (HRASV12) viability, CellTiter-Glo ATP luminescence, 48 h; reference of the scale not given here | inhibition, % (test concentration not listed) | 300,000 tested, 0.17% active;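 active = replicate mean above 50%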;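 note: 50 nL library stock added to about 25 µL; numbers are from one replicate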
# RN4220 kill: kills Staphylococcus aureus RN4220; S. aureus RN4220 growth, OD600, 16 h; AID 1259311; inhibition, % (test concentration not listed); 330,000 tested, 0.33% active;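 active = z-score of -3 or lower and OD600 up to 0.18 on both plates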;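 note: plate controls were untreated cells for no effect and reference antibiotic for full effect; stock transfer was 100 nL into about 80 µL; one replicate is shown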
# ugtP null kill: compounds lethal to S. aureus RN4220 ugtP deletion mutant | OD600 growth, 16 h; some inactives read as strong as hits | growth inhibition, % (concentration not given with the values) | 330,000 tested, 0.54% active;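 active = z-score under -3 and OD600 up to 0.15 on both plates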;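 note: plate controls were untreated wells for no effect and antibiotic for full effect; wells of about 80 µL received 100 nL stock; the first replicate is given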
# PrP UTR inh: inhibition of PrP 5' UTR reporter expression. AID 488862. 340,000 tested, 0.35% active. cell-based PrP 5' UTR mRNA reporter, plate reader. inhibition, % (no concentration beside the values);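 active = every replicate at 50% or more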;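 note: 0 = median of the neutral control wells; tested in H4 reporter cells; numbers are from one replicate; inactives centre near -14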
# Mtb hypoxia rep growth: further read-out of Mtb hypoxia rep, marked with its call; growth inhibition, %; measured here: M. tuberculosis growth (absorbance);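 0% = vehicle and 100% = reference antibiotic; read after six days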
# The depositor's hits bear a star; / = no result given.
compound	Mtb hypoxia rep	Mtb hypoxia rep growth	Autofluor counter	BJeLR lethal	RN4220 kill	ugtP null kill	PrP UTR inh
S=c1[nH]nc(C2CCCCC2)n1Cc1ccccc1	-11	-5	2016	-17	7.1	14	1
COc1c(C)oc2cc(O)ccc2c1=O	15	7	2014	-4	2.6	3	-18
CON=CCC(=O)Nc1ccc(F)cc1	18	5	/	/	2.0	0	/
Cn1nc(CC(=O)NC2CCCCC2)c2ccccc2c1=O	4	6	23933*	6	3.2	2	-46
COc1ccc(/C=N/NS(=O)(=O)c2ccc(F)cc2)cc1CN1CCSCC1	/	/	5696	-4	/	/	-5
O=C(NC1CCCN(Cc2ccc(Cl)cc2)C1)C1CCC1 (stereo not given)	11	9	/	-5	4.5	10	-3
Cc1nc2sc(C(c3cccc(F)c3)N3CC(C)OC(C)C3)c(O)n2n1 (stereo not given)	-4	-2	4574	-3	7.0	2	-122
COc1ccc(C(C)=O)cc1CC(=O)N(Cc1ccccc1)c1ccccc1	10	-3	6091	-3	10	-6	-14
CCc1ccc(NC(=O)c2cnn3c(C(F)F)cc(C)nc23)cc1	-12	8	2686	-10	-0.6	5	-28
O=C(Nc1ccncc1)c1cc(-c2ccccn2)nc2ccccc12	-3	3	4135	4	0.4	6	-7
COc1cnc(-c2ccccn2)nc1Oc1c(C)cccc1C	-2	10	4461	-3	6.2	-4	1
O=C(O)CCCN1C(=O)/C(=C\C(Cl)=C\c2ccccc2)SC1=S	9	4	2941	1	29	40	2
COCc1ccc(C(=O)N2CCCC(C(=O)c3cccc(C(F)(F)F)c3)C2)o1 (stereo not given)	9	12	3264	-4	4.0	10	-29
COCc1c(C(=O)OCc2nnc(-c3ccc([N+](=O)[O-])cc3)o2)oc2ccccc12	5	4	3619	/	4.6	-1	-10
CC(C)CC1NC(=O)N(CC(=O)Nc2cc([N+](=O)[O-])ccc2F)C1=O (stereo not given)	6	7	6392	/	4.2	8	-15
COc1ccc(NC(=O)CSc2n[nH]c(=O)n2Cc2ccccc2)cc1Cl	10	-1	4375	-4	1.5	6	9
COc1cc(C(C(=O)NC2CCCCC2)N(C(=O)Cc2c[nH]c3ccccc23)c2ccc(C)cc2)cc(OC)c1OC (stereo not given)	2	5	2137	-3	-3.1	0	-25
CCCC1CCC(=NNC(=S)NCCc2ccccc2)CC1 (stereo not given)	10	2	4053	-2	0.5	14	-19
CC(C)c1nnc(NC(=O)c2sc3ccccc3c2Cl)s1	3	6	3261	-4	26	16	-55
COc1ccc(S(N)(=O)=O)cc1C(=O)NCCCN1CCN(c2cccc(Cl)c2)CC1	-2	1	2995	-4	-15	10	-12
COc1ccc(-n2nc(C(=O)N(C)C3CCCCC3)c3ccccc3c2=O)c(OC)c1	9	8	5318	3	2.0	5	-20
C=CCNC(=O)c1cc(=O)c2ccccc2o1	8	1	9277	-3	2.2	6	-10
COc1ccc(/C=C2/SC(=O)N(CCC(=O)Nc3ccccc3)C2=O)cc1OC	-8	5	2584	2	6.7	-4	-12
O=C(COC(=O)CNC(=O)c1ccccc1)NCCCc1ccccc1	1	-1	4116	/	-3.4	-3	-8
CCOc1ccccc1NC(=O)CSc1nnc(C2CC2)n1CC	1	3	3737	-6	-1.3	6	-5
COc1ccc(OC)c(NC(=O)COC(=O)C2CCN(C(=O)c3ccc(Cl)cc3)CC2)c1	-2	3	3886	-15	3.5	5	-30
Cc1ccc2nc(NCc3ccccc3)c(C=NCc3ccccc3)c(=O)n2c1	5	9	2627	2	7.3	1	-28
CCOC(=O)C1CCN(C(=O)c2ccc(OC)cc2OC)CC1	13	-3	11063	0	2.7	2	-4
Cc1ccc(Nc2nc(-c3cccnc3)cs2)cc1C	4	-4	3559	-5	-2.6	0	-67
COc1ccc2[nH]c(=S)[nH]c2c1	/	/	5813	3	1.0	-1	-2
COc1cc(C)ccc1NC(=O)c1ccc(S(=O)(=O)N2CCOCC2)cc1	8	8	6569	-2	3.9	6	3
CCOc1cccc(-c2cc(=O)[nH][nH]2)c1	15	2	2965	1	-3.1	2	-21
O=C1OC(c2ccc([N+](=O)[O-])cc2)=N/C1=C/N1CC2CC(C1)c1cccc(=O)n1C2 (stereo not given)	-1	3	3515	11	4.6	4	-6
CC(=O)Nc1nc2cc3c(cc2s1)OCCO3	-1	-1	5071	-1	6.2	8	-20
C=CCn1c(C(C)NC(=O)c2ccccc2)n[nH]c1=S (stereo not given)	-3	-4	7008	-6	-2.6	-3	-22
COCc1c(C(=O)NC2CCCCCC2)oc2ccccc12	-5	8	4149	-7	8.6	3	-28

# Reprinted from the part before: 6 compounds, then new ones.
compound	Mtb hypoxia rep	Mtb hypoxia rep growth	Autofluor counter	BJeLR lethal	RN4220 kill	ugtP null kill	PrP UTR inh
COc1cc(C)ccc1NC(=O)c1ccc(S(=O)(=O)N2CCOCC2)cc1	8	8	6569	-2	3.9	6	3
CCOc1cccc(-c2cc(=O)[nH][nH]2)c1	15	2	2965	1	-3.1	2	-21
O=C1OC(c2ccc([N+](=O)[O-])cc2)=N/C1=C/N1CC2CC(C1)c1cccc(=O)n1C2 (stereo not given)	-1	3	3515	11	4.6	4	-6
CC(=O)Nc1nc2cc3c(cc2s1)OCCO3	-1	-1	5071	-1	6.2	8	-20
C=CCn1c(C(C)NC(=O)c2ccccc2)n[nH]c1=S (stereo not given)	-3	-4	7008	-6	-2.6	-3	-22
COCc1c(C(=O)NC2CCCCCC2)oc2ccccc12	-5	8	4149	-7	8.6	3	-28
COc1ccc(Nc2ccc(OC)cc2)cc1	14	12	/	-2	3.6	6	/
CCCn1c(N)c(C(=O)COC(=O)/C=C/c2ccc(OC(F)F)c(OC)c2)c(=O)[nH]c1=O	2	2	3642	/	2.2	0	-29
COc1ccccc1CNC(=O)c1cccc2c1C(=O)N(Cc1cccnc1)C2	16	10	2614	5	-3.1	1	-11
COC(=O)c1[nH]c(C)c(/C(O)=C2\C(=O)C(=O)N(CCN3CCOCC3)C2c2cccs2)c1C (stereo not given)	20	8	3184	-3	-10	-4	-14
COc1ccc(C(=O)/C=C/Nc2ccc(NC(C)=O)cc2)cc1OC	0	1	9818	-4	4.5	2	-22
CCOC(=O)n1cc(C(=O)c2ccccc2O)cn1	13	6	2975	4	4.2	3	-28
O=C(NC1CCCC1)C(c1ccc(Cl)cc1)N(C(=O)c1csnn1)C1CC1 (stereo not given)	-6	6	3770	-4	0.0	-1	-17
O=C(COC(=O)c1cc2ccccc2cc1O)NCc1ccccc1	9	2	4130	/	4.4	1	-11
CNC(=S)NNC(=O)c1cccn(Cc2cccc(Cl)c2)c1=O	1	5	24235*	0	2.4	-3	-5
Cc1ccccc1C(=O)N1CCN(c2ccc(NC(=O)c3cccnc3)cc2)CC1	18	4	3139	1	2.7	-68	12
CCC(C)[C@H](NC(=O)[C@@H]1CSC2c3ccccc3C(=O)N21)C(=O)NCc1ccco1 (stereo not given in full)	1	0	5423	5	0.0	5	-14
CC(=O)C(C)Oc1ccc2c3c(c(=O)oc2c1C)CCCC3 (stereo not given)	-3	11	10120	-7	8.2	-3	-1
CC(=NNC(=O)CNC(=O)c1cccs1)c1ccco1	3	13	/	/	3.3	2	/
CCCC(C(=O)Nc1ccncc1)c1ccccc1 (stereo not given)	-6	-6	6157	1	1.7	-1	-7
Cc1ccsc1C(=O)NC(C)c1ccccc1 (stereo not given)	8	5	4193	3	0.3	8	-30
Cc1cc(C)c(OCC(=O)N/N=C/c2ccc3c(c2)OCO3)c(C)c1	/	/	2644	-21	/	/	-25
CCn1nc(C)c(CNC(=O)C2CCC(=O)N(Cc3ccc(Cl)cc3)C2)c1C (stereo not given)	8	8	6054	-9	1.2	5	-3
CCOCCCn1c(=N)c(S(=O)(=O)c2ccc(C)cc2)cc2c(=O)n3cc(C)ccc3nc21	-4	-3	4259	-4	2.3	4	-6
CC(C)CNC(=O)c1ccccc1NC(=O)CSCc1ccccc1	/	/	5875	11	-2.4	-4	-7
O=C1CSC(=S)N1/N=C/c1cccnc1	/	/	3343	-8	/	/	-12
COc1ccc(NC(=O)c2cc(-c3ccco3)on2)cc1	2	10	4074	6	3.4	15	-11
Cc1ccc([N+](=O)[O-])cc1N(CC(=O)NC1CCCC1)S(C)(=O)=O	8	4	4385	/	4.1	-1	-27
CSc1nc2sc3c(c2c(=O)n1C)CCC(C)C3 (stereo not given)	/	/	6802	-9	7.9	9	-36
CCc1ccc(NC(=O)COC(=O)/C(=C/c2ccccc2OC)c2ccccc2)cc1	-1	-6	2454	-4	-4.3	-6	-16
O=C(CSc1c2c(nc3ccc(Cl)cc13)CCCC2)N1CCN(C(=O)c2ccco2)CC1	8	13	4732	/	3.3	5	-9
Cc1ccc(S(=O)(=O)N2CCN(C(=O)CCC(=O)NCc3cccc(C(F)(F)F)c3)CC2)cc1	1	0	/	12	2.6	0	-13
COc1ccccc1NC(=O)C(C)OC(=O)Cn1cnc2c1c(=O)n(C)c(=O)n2C (stereo not given)	9	-9	5782	0	-0.6	8	-29
Cc1ccc(CNC(=O)c2ccccc2NC(=O)CN2CC(C)OC(C)C2)cc1 (stereo not given)	-8	11	2997	10	4.7	8	-3
O=C(CN1CCCCC1)NCC(=O)Nc1ccc(F)c(F)c1F	1	10	3805	/	0.3	-3	-16
CC1(C)OC(C(=O)NC2CCCCC2)C(C(=O)NC2CCCCC2)O1 (stereo not given)	0	7	7427	1	4.8	10	-3
CC(C)NC(=O)CSCc1ccccc1Cl	0	5	6936	-4	6.4	4	-6
COC(=O)C(Cc1ccccc1)NC(=O)CNC(=O)c1sc2ccccc2c1Cl (stereo not given)	7	1	3692	-9	1.5	-4	-2
CSc1ccc(CN2CCN(C(=O)c3ccc([N+](=O)[O-])cc3)CC2)cc1	9	0	4211	15	-0.1	16	-39
Cc1nc(-c2ccccc2)c(Cc2ccccc2O)c(=O)[nH]1	12	11	5145	1	3.6	1	-24
Nc1ccccc1/C=N\N=C/c1ccccc1N	/	/	4297	-7	/	/	-112
CN(C)c1ccc(C(O)P(=O)(OC2CCCCC2)OC2CCCCC2)cc1 (stereo not given)	16	5	/	3	0.5	5	-12

# As a short view, some entries already given:
compound	Mtb hypoxia rep	Mtb hypoxia rep growth	Autofluor counter	BJeLR lethal	RN4220 kill	ugtP null kill	PrP UTR inh
Nc1ccccc1/C=N\N=C/c1ccccc1N	/	/	4297	-7	/	/	-112
CN(C)c1ccc(C(O)P(=O)(OC2CCCCC2)OC2CCCCC2)cc1 (stereo not given)	16	5	/	3	0.5	5	-12

# Next records follow.
compound	Mtb hypoxia rep	Mtb hypoxia rep growth	Autofluor counter	BJeLR lethal	RN4220 kill	ugtP null kill	PrP UTR inh
O=C(Nc1ccc2oc(-c3cccnc3)nc2c1)c1ccc(Br)o1	/	/	3069	5	/	/	2
CCCCn1c(N)c(Sc2ccc(C)cc2)c(=O)[nH]c1=O	4	1	2705	-5	4.7	-9	-10
Cc1snc(SCC(=O)NN=C(N)COc2ccc(F)cc2)c1C#N	4	5	/	/	3.8	10	/
CC1CCN(c2cc(N3CCN(C(=O)c4ccc(F)c(F)c4)CC3)c([N+](=O)[O-])cc2F)CC1	-2	10	2564	8	5.8	-9	-7
CCOC(=O)CC1c2ccccc2S(=O)(=O)N1c1cccc(OC)c1 (stereo not given)	11	19	/	/	8.9	3	/
COc1ccc(SCC(=O)Nc2ccccc2Cl)cc1	-2	3	4212	-12	5.6	7	-23
Cn1ccnc1SCC(=O)Nc1ccc2c(c1)OCCO2	11	11	6178	-4	-0.4	-4	-38
CCOC(=O)CSc1nc(N)c2c3c(sc2n1)CCCC3	/	/	4586	-7	7.4	-2	-35
Cc1ccc2nc(-c3cc(-c4ccccc4)no3)cn2c1	6	-3	3362	2	3.4	10	4
CCCCc1cc2ccccc2c(OCCN(C)C)n1	16	6	4037	/	1.8	7	-3
CCN(CC)S(=O)(=O)c1ccc(N2CCCC2)c(C(=O)OCC(=O)Nc2cc(C)on2)c1	-2	-13	4490	-6	2.8	5	-33
CCOc1ccc(NCc2nnc(SCC(=O)Nc3nc(-c4ccccc4)cs3)n2-c2ccccc2)cc1	-3	4	2026	-10	3.0	-3	-24
